hNpr1 antagonist – human Npr1 receptor antagonism; AID 1347048; HEK293 hNpr1 GloSensor cGMP, ANP-stimulated luminescence; Potency, µM (series often up to 46.3 µM), inactives show at the highest dose activity change, negative = inhibition, usual class: inhibitors; P16066; 76,000 tested, 1.6% active; active = well fitted inhibition curve with a large enough effect; inconclusive = small, poorly fitted or top-dose-only effect; inactive = no such curve, though single readings can be large or run the other way;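 note: nearly all actives have a fitted effect of over 60% in size; nearly all hits also lower the signal before the agonist is added; a reference antagonist and vehicle were the controls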
Target sequence (P16066 whole entry, looked up): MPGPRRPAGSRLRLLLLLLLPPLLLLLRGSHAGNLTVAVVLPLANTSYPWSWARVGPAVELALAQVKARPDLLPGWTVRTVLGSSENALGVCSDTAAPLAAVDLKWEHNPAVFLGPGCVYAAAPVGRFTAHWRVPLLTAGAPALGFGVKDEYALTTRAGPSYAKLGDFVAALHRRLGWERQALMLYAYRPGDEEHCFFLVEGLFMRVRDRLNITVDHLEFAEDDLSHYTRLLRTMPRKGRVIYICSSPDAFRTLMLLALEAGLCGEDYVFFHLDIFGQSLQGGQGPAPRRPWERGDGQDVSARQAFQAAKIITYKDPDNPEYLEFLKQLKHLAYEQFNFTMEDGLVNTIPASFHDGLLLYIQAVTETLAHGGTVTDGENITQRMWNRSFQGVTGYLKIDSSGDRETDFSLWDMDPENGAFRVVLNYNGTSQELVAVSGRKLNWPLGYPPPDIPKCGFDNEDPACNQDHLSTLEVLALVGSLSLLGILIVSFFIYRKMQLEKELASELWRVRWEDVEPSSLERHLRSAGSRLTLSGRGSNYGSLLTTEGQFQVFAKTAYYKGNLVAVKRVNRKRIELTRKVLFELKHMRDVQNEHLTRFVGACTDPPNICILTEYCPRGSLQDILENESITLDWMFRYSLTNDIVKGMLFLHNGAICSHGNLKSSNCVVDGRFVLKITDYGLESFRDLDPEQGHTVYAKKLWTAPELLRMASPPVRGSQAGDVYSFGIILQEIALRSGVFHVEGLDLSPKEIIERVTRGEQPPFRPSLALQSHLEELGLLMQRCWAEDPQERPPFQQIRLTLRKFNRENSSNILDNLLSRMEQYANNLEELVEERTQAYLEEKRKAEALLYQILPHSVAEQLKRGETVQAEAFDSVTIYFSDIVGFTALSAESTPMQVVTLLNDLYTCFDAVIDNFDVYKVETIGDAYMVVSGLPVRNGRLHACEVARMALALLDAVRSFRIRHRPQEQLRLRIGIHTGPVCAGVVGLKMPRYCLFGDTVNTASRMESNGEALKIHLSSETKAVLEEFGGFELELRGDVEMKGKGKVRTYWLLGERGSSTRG
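Compound pre-incubated 30 min at room temperature on GloSensor-loaded HEK293 cells stably carrying hNpr1 and the pGS-40F cGMP biosensor. Stimulation uses hNppA at 0.1 nM final; luminescence is taken at baseline and 20 min post-agonist.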
* hit, by the source's call; ? = inconclusive; [ ] = dose if it differs, or a comment. % is set by controls: 0 for no effect and ±100 for the full control effect; potency is the fitted concentration of half-maximal effect. Only part of the results is shown; rates above refer to the full screens.

hNpr1 antagonist	Compound
-8%[70.6 µM]	CN1C[C@@H](NC(=O)c2ccc(F)cc2)C[C@H]1c1nc(-c2ccc3c(c2)OCO3)no1
6%	Cc1noc([C@@H]2CC(F)(F)CN2C(=O)c2nn(C)c3ccccc23)n1
5%	COc1ccc(C[C@H](NC(=O)[C@@]2(O)C[C@@H](O)[C@H](O)[C@@H](NC(=O)c3ccc(F)c(Cl)c3)C2)C(N)=O)cc1
-10%	O=C(COc1ccc(F)cc1)NCc1nnc2c(-c3nc(C4CC4)no3)cccn12
10%[70.6 µM]	O=C(Cc1ccccn1)N1CCC(N2CCCCCC2=O)CC1
-6%	COc1ccc(C(C)NC(=O)c2cc3n(n2)CC(c2ccc(Cl)cc2)OC3)cc1OC (configuration not stated)
-14%	O=C(CCc1nc2ccccc2s1)N1CCCC(c2nc(C3CCOCC3)no2)C1 (configuration not stated)
?	Cc1ccccc1S(=O)(=O)N1CCCC(CCC(=O)NC2CCCCCC2)C1 (configuration not stated)
0%	O=C(Nc1ccccc1)N1CCC(c2nn(-c3ccccc3)c(=O)[nH]2)CC1
4%	CCn1cnnc1-c1nn(C)c2c1CN(C(=O)CCCc1nc3ccccc3s1)CC2
2%[70.6 µM]	COCc1ccc2c(c1)c(OC(C)(C)C(=O)Nc1cc(C)nn1C)nn2CCC(C)C
-11%	Oc1ccc(-c2ccc(-c3nc(CCc4ccccc4)no3)cn2)cc1
-5%	CC(C)c1noc(C2CCCN(C(=O)C3(c4ccccc4)CC3)CCC(=O)NCC2)n1 (configuration not stated)
1%	CN(CC1CCOC1)C(=O)c1ccc(Br)o1 (configuration not stated)
-2%	COc1ccc(-c2ccc3c(c2)C(=O)N2CCN(C(=O)CC(C)(C)C)C[C@@H]2C(=O)N3)c(OC)c1
?	CC1=C[C@@H](CNC(=O)Nc2ccccc2)[C@H](C(C)C)C[C@H]1Cc1nnc(-c2ccncc2)o1
-1%	CCC1c2nccn2CCCN1C(=O)C1CCOCC1 (configuration not stated)
6%[70.6 µM]	CCCCN1C(=O)[C@@H]2C[C@@H](O)CN2C2(CN(Cc3cccnc3)C2)C1=O
-2%	CCCCC1CCCN1C(=O)c1coc(COc2cccc(F)c2F)n1 (configuration not stated)
6%	O=C(NCc1nnc2n1CCCCC2)C1CC2(CCNCC2)CN1 (configuration not stated)
-15%	CNC(=O)[C@@H]1CN(C(=O)c2cccc(OC)c2OC)C[C@H]1COC
7%	Cc1cnc(-c2cccnc2)n1CC1CCN(C(=O)c2ccco2)CC1
-1%	COc1ccc(OCc2cc(C(=O)NC(C)CCO)n[nH]2)c(Cl)c1 (configuration not stated)
-7%	O=C1[C@H]2CC[C@H](CN(Cc3cccc(N4CCOCC4)c3)C2)N1CC1CCC1
3%	CC(C)c1noc(CN(C)C(=O)CC2C(=O)NCCN2Cc2ccoc2)n1 (configuration not stated)
-21%	CCc1nc2c(c(-c3ccc(O)cc3)n1)CN(Cc1cccc3ccccc13)CC2
-1%	Cc1noc(C)c1S(=O)(=O)N1CC(c2nnc(-c3ccncc3)o2)C2(CCOCC2)C1 (configuration not stated)
-1%	CC(C)c1cccc(NC(=O)CN2C(=O)NC3(CCCCC3)C2=O)c1
-1%[70.6 µM]	CN1CCC2(C1)CN(Cc1ccccc1)c1ccc(C(=O)Nc3ccc(F)cc3)cc12 (configuration not stated)
0%	O=C(O)C[C@@H]1CCN(C(=O)C2CCCCC2)C[C@@H]1CCN1CCN(c2ccc(F)cc2)CC1

Copied from the list:
O=C(COc1ccc(F)cc1)NCc1nnc2c(-c3nc(C4CC4)no3)cccn12 @ hNpr1 antagonist: -10%
CN1CCC2(C1)CN(Cc1ccccc1)c1ccc(C(=O)Nc3ccc(F)cc3)cc12 (configuration not stated) @ hNpr1 antagonist: -1%[70.6 µM]

The main list resumes, repeating the six entries before the break.
hNpr1 antagonist	Compound
3%	CC(C)c1noc(CN(C)C(=O)CC2C(=O)NCCN2Cc2ccoc2)n1 (configuration not stated)
-21%	CCc1nc2c(c(-c3ccc(O)cc3)n1)CN(Cc1cccc3ccccc13)CC2
-1%	Cc1noc(C)c1S(=O)(=O)N1CC(c2nnc(-c3ccncc3)o2)C2(CCOCC2)C1 (configuration not stated)
-1%	CC(C)c1cccc(NC(=O)CN2C(=O)NC3(CCCCC3)C2=O)c1
-1%[70.6 µM]	CN1CCC2(C1)CN(Cc1ccccc1)c1ccc(C(=O)Nc3ccc(F)cc3)cc12 (configuration not stated)
0%	O=C(O)C[C@@H]1CCN(C(=O)C2CCCCC2)C[C@@H]1CCN1CCN(c2ccc(F)cc2)CC1
-7%	CCN(CC)Cc1cc(C(=O)N[C@H](c2cccs2)C2CC(O)C2)c(C)o1 (some centres not stated)
10%[70.6 µM]	Cn1nccc1CN1CCC2(C1)NC(=O)c1ccccc1O2 (configuration not stated)
-2%	Cc1ncccc1C(=O)NCC(=O)N1CCCCCNC(=O)CC1c1ccccc1 (configuration not stated)
-5%	CCc1noc(-c2cn(C3CCCN(C(=O)c4cc(OC)cc(OC)c4)C3)nn2)n1 (configuration not stated)
-8%	CCCN1CC(C(=O)N2CCn3nc(Cc4ccccc4)cc3C2)CCC1=O (configuration not stated)
-3%	CCNC(=O)N1CCC(n2c(C)cnc2C2CC2)CC1
-2%	O=C(Nc1ccc(-c2nnc3n2CCCC3)cc1)c1nccc2ccccc12
-1%	O=C(c1cccnc1)N1CCCC(CCc2c(F)cccc2F)C1 (configuration not stated)
1%	CCS(=O)(=O)N1CCC(Cc2ncc(C)n2Cc2ccccc2)C1 (configuration not stated)
0%	Cc1cccc(CNC(=O)C2CCN(C(=O)c3ncn4c3COC(c3ccc(F)cc3)C4)CC2)c1 (configuration not stated)
6%[70.6 µM]	O=C(Nc1ccccc1)N[C@H]1[C@H](O)[C@@H](N2CCOCC2)[C@@H]2OC[C@H]1O2
3%	COc1ccc(C)cc1C(=O)N1CC(=O)N(c2cccc(Cl)c2)CC1C (configuration not stated)
3%[70.6 µM]	CC[C@H]1CN(C(=O)NC(C)C)CC[C@H]1CC(=O)NCc1cccc2ccccc12
-7%[70.6 µM]	CC(C)C[C@@H]1N[C@H](C(=O)NCc2ccc(C(F)(F)F)cc2)Cc2c[nH]c3cccc1c23
-11%	CCOC(=O)c1ccccc1NC(=O)CN1C(=O)NC(c2ccc(C)cc2)C2=C1COC2=O (configuration not stated)
-4%[70.6 µM]	CCCCc1cc(C[C@@H]2C[C@H](NC(=O)N3CCOCC3)C2(C)C)no1
8.9µM*	N#Cc1cccc(CN2CCC(C3=NC(O)c4cc(F)ccc4N3)CC2)c1 (configuration not stated)
-15%	CN(C/C=C/c1ccccc1)C(=O)c1ccc(C2CCCNC2)cc1 (configuration not stated)
-16%	Cc1oc2ccn(Cc3cccc(F)c3)c(=O)c2c1C(=O)NCC1CCCCC1
21%[70.6 µM]	O=C(C1CN(c2ccccc2)C(=O)N1)N1CCCC1 (configuration not stated)
-2%[70.6 µM]	COCCNC(=O)c1cnc2c(c1)N(C(=O)Cc1cn(C)c3ccccc13)CCC2
0%[70.6 µM]	CN(Cc1ccc(F)cc1)CC1CCCCC1
?	CC(C)c1ccc(CN2CC(CNc3cccnc3)C3(C2)CN(c2ccccc2)C3)cc1 (configuration not stated)
1%	COc1ccccc1[C@@H]1CN(C(=O)C2CCOCC2)C[C@H]1C(=O)O
-2%	COc1cc(CCC(=O)N2C[C@@H](CN3CCN(C)CC3)[C@@H](CO)C2)ccc1C
0%	C=CCc1ccccc1OCCN(C)Cc1ncnn1CC
1%[70.6 µM]	COCCn1cnc2ccc(-c3cccc(C(F)(F)F)c3)nc2c1=O
0%	CCOc1cc(=O)n2c(c1C(=O)Nc1ccc(C(N)=O)cc1)CCCC2
0%	CC1(c2ccccc2)N(Cc2ccccc2C#N)C(=O)OC12CCN(C(=O)C1CCOCC1)CC2 (configuration not stated)
0%	O=C(COc1ccc(F)cc1)N1C[C@@H](CO)[C@H](c2ccccn2)C1
3%	O=C(Nc1ccc(F)cc1F)N[C@H]1[C@H]2CCO[C@H]2[C@@H]1N1CCCCC1
0%	O=C([C@@H]1C[C@H](F)CN1S(=O)(=O)c1ccc(F)cc1)N1CCCCC1
-2%	O=C(NC1CC1)[C@@H]1C[C@H](Oc2ccccc2)CN1C(=O)c1cccnc1
-11%	CCN(Cc1noc(C2CCC2)n1)C(=O)c1cc(S(N)(=O)=O)ccc1F
-7%[70.6 µM]	O=C(O)COCC(=O)N[C@H]1CCN2C(=O)c3cc(-c4cccs4)ccc3NC(=O)[C@H]12
5%[70.6 µM]	CN1CCOc2c(C(=O)NCCN3CCNC3=O)cc(-c3ccc(O)c(F)c3)cc21
-25%	CC(=O)Nc1ccc(C(=O)NC2CCN(c3cc(-c4ccc(Cl)cc4)[nH]n3)CC2)cc1
10%	CCn1nccc1C(=O)N1C[C@@H](COCC2CC2)[C@H](c2ccncc2)C1
1%	CCCNC(=O)CN1C(=O)NC(c2ccc(C)cc2)C2=C1COC2=O (configuration not stated)
7%[70.6 µM]	COc1ccc(CN[C@H]2[C@H](O)[C@@H](N3CCN(C)CC3)[C@@H]3OC[C@H]2O3)cc1
-2%	O=C(Cn1ncc2ccccc2c1=O)N1CCCC(Cc2nc3ccccc3[nH]2)C1 (configuration not stated)
17%	O=C(c1ccccc1F)N1CCC2(CNc3ccccc3[S+](=O)([O-])N2)C1 (configuration not stated)
-2%[70.6 µM]	CC(C)(C)c1ccc(CN2CC3(COCC2=O)CN(c2ccccc2)C3)cc1
6%	CCn1ccnc1CN(C)C(=O)c1cc(COc2ccc3c(c2)OCO3)[nH]n1
-5%	O=C1CCSc2ccc(S(=O)(=O)N[C@H]3C[C@@H]4OCC[C@H]34)cc2N1
9%	COc1ccccc1C(=O)N1CCc2nc(C)nc(-c3ccc(Cl)cc3)c2C1
-3%	CN1[C@H]2CC[C@@H]1CN(C(=O)c1cc(-c3ccc(O)cc3)n[nH]1)CC2
0%	O=C(N[C@@H]1CN(Cc2cn[nH]c2-c2ccccc2)C[C@H]1CO)C1CC1
19%	C[C@]1(O)CCN(C(=O)c2cccc(Cn3cccn3)c2)C[C@@H]1O
0%	COc1ccc(CCNc2ncnc3c2CN(c2ccc(C)cc2)C(=O)CN3C)cc1
?	CN1Cc2ccc(NCc3ccccc3)nc2C(C)(C(=O)NCCOc2ccccc2)C1 (configuration not stated)
-6%	O=C(Nc1cccc(C(F)(F)F)c1)N1CCC(n2cnnc2C2CC2)C1 (configuration not stated)
-10%	c1ccc(OCCC2CCNC2)cc1 (configuration not stated)
-12%	COc1ccc(S(=O)(=O)NC[C@@H]2C=C(C)[C@H](CC(=O)N(C)Cc3cccnc3)C[C@H]2C(C)C)cc1
-1%	Cc1cc(C)n(C2CCN(C(=O)CCc3cc4n(n3)CCNC4)C2)n1 (configuration not stated)
?	Clc1ccccc1C1(c2ccnc(NCc3ccccc3)n2)CCNCC1
2%[70.6 µM]	CC(C)(Oc1nn(CC2CC2)c2ccc(CN3CCCC3)cc12)C(=O)Nc1cccnc1
5%	O=C(CCC[C@@H]1[C@H]2CCCN3CCC[C@@H](CN1Cc1cccnc1)[C@@H]23)N1CCN(C2CCCC2)CC1
2%	O=C(O)c1ccc(CC2CCN(C(=O)CCn3cccc3)C2)cc1 (configuration not stated)
2%	O=C1CCN(C(=O)C2CCN(C(=O)c3ccc4ccccc4n3)CC2)CCCCCCN1

Following part:
hNpr1 antagonist	Compound
0%	COc1cc(CN2C[C@@H](CO)[C@H](NC(=O)c3cccnc3)C2)ccc1F
-2%	CCCN(CC1CCOC1)S(=O)(=O)c1cc(F)ccc1OC (configuration not stated)
6%[70.6 µM]	COC1CCN(c2ccc3nnc(-c4ccccn4)n3n2)CC1
-2%	CCC(C)NC(=O)C1CCN(C(=O)c2nnn3c2COC(c2ccc(C)cc2)C3)CC1 (configuration not stated)
6%	COc1cc(CN2CCC(CO)(CN3CCCC3)CC2)ccc1F
-24%	O=C(C[C@H]1NC(=O)c2ccccc2NC1=O)Nc1ccc(C(F)(F)F)cc1
1%	COCC(=O)N[C@H]1C[C@@H](CO)N(Cc2cc(F)c(F)c(F)c2)C1
1%	COc1cc(SC)ccc1C(=O)N[C@@H]1C=C(C(=O)N[C@@H](Cc2cccs2)C(N)=O)C[C@@H](O)[C@@H]1O
-3%	Cc1noc(-c2ccccc2Cl)c1C(=O)NCCCCc1ccccc1
1%[70.6 µM]	O[C@@H]1CCN(Cc2nc(C3(O)CCN(Cc4ccccc4)CC3)cs2)C1
4%	COc1cc(OC)c(C(=O)N2CC[C@H](CO)[C@@H](O)C2)cc1OC
-5%[70.6 µM]	C=CCNC(=O)N[C@H]1CO[C@H]2[C@@H]1OC[C@@H]2Nc1nccc(C2CCCC2)n1
-5%	O=C(CCC1CCCN(S(=O)(=O)c2ccc(F)cc2)C1)NC1CCS(=O)(=O)C1 (configuration not stated)
-4%	CCCNC(=O)N(C1CCOCC1)C1CCN(C(=O)c2ccc(Cl)cc2OC)CC1
?	Clc1cc(NCc2cccs2)n2nccc2n1
-16%	Cc1cccc(C(=O)N2CCC3(CC2)OCC(C(=O)N2CCCC2)N3C(=O)c2ccc(F)cc2)c1 (configuration not stated)
3%	COc1cc(CN2Cc3ccccc3C2)ccc1OCC(O)CN1CCOCC1 (configuration not stated)
-12%[70.6 µM]	CNC(=O)CCn1ncc2cc(OCc3ccccc3-c3cccnc3)ccc21
-1%	Cn1ccnc1CN1CCN(C(=O)[C@H]2CNC[C@H](C(=O)N3CCOCC3)C2)CC1
7%[70.6 µM]	CC(=O)N1CCCC2(C1)CN(C)c1ccc(C(=O)NCCc3ccccc3)cc12 (configuration not stated)
0%	CCNC(=O)N1CCc2nc(OCCOC)ccc2C1
-2%[70.6 µM]	COCC(=O)N1CCC2(CC1)OC(=O)N(Cc1cccc(OC)c1)C2(C)c1cccnc1 (configuration not stated)

2 of the compounds above, tab-delimited.
compound	hNpr1 antagonist
O=C(C[C@H]1NC(=O)c2ccccc2NC1=O)Nc1ccc(C(F)(F)F)cc1	-24%
COCC(=O)N[C@H]1C[C@@H](CO)N(Cc2cc(F)c(F)c(F)c2)C1	1%
